Six1-Eya2 inh – blocks human Six1 binding to Eya2; AlphaScreen GST-Six1/His-Eya2 binding, biochemical; stronger effect = lower value; control for the full effect not named in the record; activity change, % (test concentration not listed); 360,000 compounds, 0.56% hits; AID 651725; in the data active = activity change below about -65%; inconclusive = about -30% to -65%; inactive = above about -30%; also: % is scaled to controls: 0 for no effect and ±100 for the full control effect
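Homogeneous AlphaScreen proximity assay pairing GST-Six1 with His-tagged Eya2 (added as 5X mix: 250 nM and 500 nM) in 50 mM Tris pH 8.0, 300 mM NaCl, 1 mM TCEP. Glutathione donor and nickel acceptor beads; 1 h, 37 °C, dark.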
D2 agonist – agonists of human D2 dopamine receptor (beta-arrestin); DiscoveRx PathHunter D2 beta-arrestin, luminescence, 90 min; 100% = 57 uM dopamine signal; activation, % (no concentration beside the values); 360,000 compounds, 0.084% hits; in the data active = activation above about 40%; inconclusive = about 15% to 40%; inactive = below about 15%; also: compound concentration not given in the record; the text of the record calls up to 30% inactive
Target sequence (P14416 whole entry, looked up): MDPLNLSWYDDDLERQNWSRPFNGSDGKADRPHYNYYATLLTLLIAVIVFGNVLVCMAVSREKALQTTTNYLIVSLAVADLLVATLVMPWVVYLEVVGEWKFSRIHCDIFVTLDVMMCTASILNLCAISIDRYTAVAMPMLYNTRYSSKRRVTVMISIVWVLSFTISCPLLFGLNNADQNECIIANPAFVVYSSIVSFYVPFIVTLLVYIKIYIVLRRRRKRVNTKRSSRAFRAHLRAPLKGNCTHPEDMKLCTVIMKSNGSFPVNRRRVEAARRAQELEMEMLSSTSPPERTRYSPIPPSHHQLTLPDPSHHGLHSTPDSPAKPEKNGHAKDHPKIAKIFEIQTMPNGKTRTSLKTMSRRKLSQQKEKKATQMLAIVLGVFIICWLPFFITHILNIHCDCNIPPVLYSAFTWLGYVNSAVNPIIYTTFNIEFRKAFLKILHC
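DiscoveRx PathHunter D2 beta-arrestin cells (2,100/well) attached overnight, then compound-stimulated 90 min at 37 C in HBSS/10 mM HEPES/0.1% Tween-20 buffer; beta-galactosidase complementation read by luminescence after 1 h at ambient temperature. Dopamine 57 uM final (EC100) as control.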
gsp antag – antagonizes gsp, the McCune-Albright syndrome mutation. 340,000 compounds, 0.4% hits. Potency, µM (top dose mostly 76.9 µM), for the others: at the top dose activity change, negative = inhibition, hits mostly inhibitors. gsp-mutant cells, cAMP HTRF, 30 min; control for the full effect not named in the record. AID 624288; active = falling curve of any shape with a large fitted effect; inconclusive = falling curve, mostly with a smaller effect; inactive = flat or rising curve; cell line not stated here;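 also: intracellular cAMP measured with PDE inhibitor Ro 20-1724 present during compound exposure; potency is read from the fitted curve at half-maximal effect; % is scaled to controls: 0 for no effect and ±100 for the full control effect; nearly all actives have a fitted effect of over 65% in size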
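Cells, 2000/well, grown 16–24 h in DMEM 10% FBS with 0.5 mg/ml G418, then compounds plus […] (300 uM addition stock), 30 min at 37C. cAMP read by HTRF (cAMP-d2 and anti-cAMP antibody-K in lysis buffer) after 30 min RT.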
gsp ag – agonists of gsp mutant (McCune-Albright syndrome); gsp mutant cells, cAMP HTRF, 30 min; control for the full effect not named in the record; Potency, µM (doses to about 76.9 µM), without a hit: top-dose activation (cAMP increase), actives largely listed as activators; 340,000 compounds, 0.13% hits; active = well fitted activation curve with a large enough effect; inconclusive = small, poorly fitted or top-dose-only effect, or another doubt; inactive = no such curve, though single readings can be large or run the other way; cell line not stated here;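 also: phosphodiesterase inhibitor Ro 20-1724 added with compounds to block cAMP breakdown; potency is read from the fitted curve at half-maximal effect; nearly all actives have a fitted effect of over 60% in size; about a fifth of the inactives were tested at one dose only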
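Cells in DMEM/10% FBS with G418 were pretreated with compounds in DMSO plus […] (300 uM stock) for 30 min at 37C. cAMP was measured by HTRF (cAMP-d2 plus anti-cAMP antibody-K) after 30 min at room temperature.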
D2 PAM – human D2 receptor positive allosteric modulation | potentiation, % (no concentration beside the values) | DiscoveRx D2 beta-arrestin cells, luminescence, 90 min; 100% = 57 uM dopamine signal | P14416 | 360,000 compounds, 0.23% hits; active = potentiation of 50% or more; inconclusive = 30% to 50%; inactive = 30% or less;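 also: compound concentration not given in the record; tested on top of an EC20 dose of dopamine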
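PathHunter D2 cells, attached overnight at 37 deg C, received compound in DMSO plus dopamine at EC20 (50 nM final) for 90 min at 37 deg C. Beta-arrestin recruitment was read as luminescence after 1 h with detection reagent at ambient temperature.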
CtBP-E1A inh – inhibitors of CtBP/E1A interaction | AlphaScreen GST-E1A/His-CtBP binding, 1536-well; stronger effect = lower value; control for the full effect not named in the record | activity change, % (concentration not given with the values) | AID 651724 | 340,000 compounds, 0.49% hits; in the data active means activity change below about -65%; inconclusive means about -30% to -65%; inactive means above about -30%; also: % is scaled to controls: 0 for no effect and ±100 for the full control effect
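GST-E1A and His-tagged CtBP (125 nM each as 5X stock) were preincubated with pin-transferred compound for 2 h at 37 °C in the dark, then glutathione donor and nickel acceptor beads were added for 1 h before AlphaScreen reading.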
Numbers without * were called inactive; ? = inconclusive; / = not tested or not shown; [ ] = another dose, or the depositor's remark.

SMILES | Six1-Eya2 inh | D2 agonist | gsp antag | gsp ag | D2 PAM | CtBP-E1A inh
COc1ccc(OC)c(NC(=S)NCC(c2cccnc2)N2CCOCC2)c1 (stereo not drawn) | 4 | -4.0 | 17% | ? | 0 | 10
COC(=O)C1Sc2[nH]c(=O)sc2C2c3ccccc3OC(=O)C12 (stereo not drawn) | -2 | 2.5 | -8% | -25% | -9 | -1
COc1ccccc1NC(=O)c1ccc(-n2cccn2)c([N+](=O)[O-])c1 | -13 | 2.6 | -14% | -24% | 5 | -4
NC1=NC(=O)/C(=C/C=C/c2cccs2)S1 | -20 | -1.1 | 1% | -4%[15.4 µM] | -15 | -18
CCc1ccc([C@H]2C[C@H]3[C@H]4C(=O)N(c5ccccc5)C(=O)[C@H]4CC(=O)[C@@H]3CN2S(=O)(=O)c2ccc(C)cc2)cc1 | 1 | 4.2 | / | / | -6 | -5
Cc1ccc(C(=O)NCCc2nnc3ccc(SCC(=O)NCc4ccc(F)cc4)nn23)cc1 | 5 | 3.5 | -4% | ? | 5 | 5
CN(Cc1ccccc1)C(=O)c1ccc(NC(=O)Cc2cccc(NC(=O)C3CCCN(C(=O)C4CCCCC4)C3)c2)cc1 (stereo not drawn) | -8 | -2.2 | -2% | / | -5 | -17
CCOc1ccc(NS(=O)(=O)c2cc(C(=O)NCCCN3CCCC3=O)ccc2C)cc1 | -2 | -2.5 | -11% | 26% | -8 | /
COc1ccc(CCN2CC(C(=O)NCc3cn(C)nc3C)CCC2=O)cc1 (stereo not drawn) | 0 | -2.9 | / | -4% | -15 | 3
O=C(COC(=O)COc1ccccc1F)NCCc1ccc(F)cc1 | -5 | -0.9 | 5% | 1% | -4 | /
N/C(CC(=O)NC1CCCCC1)=N\OCC(=O)Nc1ccc(Cl)c(Cl)c1 | 0 | 1.3 | -3% | -22%[15.4 µM] | -2 | 1
C=CCn1c(SCC(=O)Nc2ccc(C(=O)OCC)cc2)nnc1-c1cccs1 | 1 | 1.2 | 11% | 12% | -9 | -3
O=S1(=O)CC(N2CC=CC2)CN1Cc1ccc(F)cc1 (stereo not drawn) | 8 | -4.7 | / | / | -7 | ?
O=C(Oc1cccc(N2C(=O)CCC2=O)c1)C1CC(=O)N(c2ccc(F)cc2)C1 (stereo not drawn) | 0 | 3.5 | -12% | -58%[inhibitor] | 1 | 8
O=C(NN(CC(O)COc1ccccc1)CC(O)COc1ccccc1)c1ccccc1 (stereo not drawn) | -4 | 4.7 | -1% | -2%[15.4 µM] | -4 | -3
COc1ccc(OC)c(C2=NOC(C(=O)NCc3ccccn3)C2)c1 (stereo not drawn) | 0 | -0.7 | 16% | -30%[inhibitor] | -5 | 5
CCOC(=O)C1=C(C)OC(N)=C(C#N)C1C1CCCCC1 (stereo not drawn) | -2 | 2.2 | -2% | -22% | -1 | 5
COC(=O)c1ccc(C(=O)OC)c(NC(=O)COC(=O)C2CCCCC2)c1 | 17 | -0.3 | 7% | -7% | 6 | 2
Cc1cccc(NC(=S)N2CCC(c3nc4ccccc4o3)CC2)c1 | -11 | -1.3 | ? | 4% | -5 | 3
Cc1ccc(C2=NC3(CCCC3)N=C2SCC(=O)Nc2ccc3c(c2)OCCO3)cc1 | 0 | -6.3 | ? | -36% | 3 | 16
Cc1c(NC(=O)Nc2cccc(Cl)c2Cl)c(=O)n(-c2ccccc2)n1C | 0 | -3.8 | 7% | 21%[15.4 µM] | 14 | 0
CC1=C(C(=O)NCCCOC(C)C)C2(CCC(C)CC2)OC1=O (stereo not drawn) | 7 | -2.7 | 11% | 20% | -5 | 8
O=C(OCC(=O)N1CCc2ccccc21)c1ccccc1F | -1 | -3.4 | 7% | 5% | -3 | 10
O=C(Cn1cc([N+](=O)[O-])cn1)N1CCN(c2ccccc2)CC1 | 17 | 2.2 | 2% | 0%[15.4 µM] | -5 | -14
CCOC(=O)CSc1nnc(NC(=O)c2cccc(S(=O)(=O)N3CCCC3)c2)s1 | 0 | -3.0 | ? | -41%[inhibitor] | 4 | 4

Sorted by count of non-hydrogen atoms (high to low): some entries from above
SMILES | Six1-Eya2 inh | D2 agonist | gsp antag | gsp ag | D2 PAM | CtBP-E1A inh
CCc1ccc([C@H]2C[C@H]3[C@H]4C(=O)N(c5ccccc5)C(=O)[C@H]4CC(=O)[C@@H]3CN2S(=O)(=O)c2ccc(C)cc2)cc1 | 1 | 4.2 | / | / | -6 | -5
O=C(COC(=O)COc1ccccc1F)NCCc1ccc(F)cc1 | -5 | -0.9 | 5% | 1% | -4 | /
CC1=C(C(=O)NCCCOC(C)C)C2(CCC(C)CC2)OC1=O (stereo not drawn) | 7 | -2.7 | 11% | 20% | -5 | 8
NC1=NC(=O)/C(=C/C=C/c2cccs2)S1 | -20 | -1.1 | 1% | -4%[15.4 µM] | -15 | -18

Further entries:
SMILES | Six1-Eya2 inh | D2 agonist | gsp antag | gsp ag | D2 PAM | CtBP-E1A inh
O=C1c2ccccc2C(=O)N1OCc1ccc(Cl)cc1 | 3 | -2.5 | -11% | -30%[inhibitor] | -4 | 13
CCOc1ccc(NC(=S)NC(C)c2cccs2)cc1 (stereo not drawn) | -6 | 1.5 | 4% | -1% | -14 | -15
CCn1c(C)c(C)c2cc(C(=O)N3CCc4ccccc4C3)ccc21 | -29 | -0.9 | 4% | -8% | -12 | /
CCOC(=O)c1c(C)[nH]c(C)c1S(=O)(=O)N1CCN(C(=O)c2ccco2)CC1 | 3 | 1.5 | 4% | -16% | 0 | /
CCCCC(=O)OCC(=O)Nc1ccc(C)c(F)c1 | 1 | 1.2 | 15% | -8%[15.4 µM] | -4 | -15
CCOC(=O)N1CCC(NCCNC(=O)c2ccc(F)c(F)c2)CC1 | 4 | 1.9 | 5% | / | -23 | 4
COc1ccc2c(c1)C1OCCC1C(c1ccco1)N2 (stereo not drawn) | -1 | -1.7 | 1% | 13% | -14 | -22
CC1(C(=O)N2CCN(C(=O)c3ccco3)CC2)CCN1Cc1ccccc1OC(F)F (stereo not drawn) | 11 | 2.8 | / | / | -4 | 2
Nc1nc(-c2cccnc2)nn1C(=O)c1ccccc1Cl | 3 | -4.7 | 0% | 36% | -18 | 9
O=C(NCC1CCCCC1)c1ccc(Cl)c(S(=O)(=O)N2CCOCC2)c1 | 6 | -4.2 | -14% | -21% | -21 | /
O=[N+]([O-])c1ccc(N2CCN(c3ccc(F)cc3)CC2)cc1 | -2 | 3.7 | 9% | 16% | -5 | -16
CCc1ccc(OCCSc2nc3ccccc3n2CC(=O)O)cc1 | 1 | -5.0 | -6% | -18% | -8 | 9
O=C(CN1c2ccccc2Sc2ccccc21)NNC(=O)Nc1ccc(Cl)c(Cl)c1 | -11 | 1.6 | ? | -34% | -4 | -6
Cc1ccc2nc(Cn3cc(C(F)(F)F)cc(Cl)c3=O)cc(=O)n2c1 | 1 | -2.6 | 6% | 4%[15.4 µM] | 2 | -5
CCc1nc(OCCN(C)C)c2oc3ccccc3c2n1 | -5 | -2.1 | 7% | -29% | -5 | -2
COc1ccc(Cl)cc1C(=O)NCC#N | 7 | -2.3 | 6% | 35% | -6 | 5
O=C(NCc1ccncc1)C(=O)NCc1ccncc1 | 17 | 0.7 | 7% | -2%[15.4 µM] | 9 | -17
Cc1ccccc1CN1CCC(n2nccc2NC(=O)CCOc2ccccc2)CC1 | -3 | -3.6 | -13% | 13% | -26 | -17
CC(C)c1nc(SCC(=O)N2CCOCC2)c2c(=O)n(C)c(=O)n(C)c2n1 | 3 | -6.5 | 2% | ? | 1 | -6
CC(NC(=O)COc1ccc(N(C)S(=O)(=O)c2ccccc2)cc1)c1ccccc1 (stereo not drawn) | 2 | -1.1 | -11% | -116%[inhibitor] | -1 | /
Cc1cc(NC(=O)CSc2nc3ccccc3[nH]2)no1 | 5 | -1.0 | 5% | -3% | -4 | 0
CCC1CCCCN1C(=O)COc1cc(=O)n(C)c2ccccc12 (stereo not drawn) | -1 | -1.9 | 4% | ? | 0 | 2
COC(=O)CN1C(=S)N(c2ccc(OC)cc2)C(=O)/C1=C/c1ccc(N2CCOCC2)cc1 | -15 | -9.7 | -13% | -15% | -5 | -28
CSC1=NCCN1C(=O)Cc1cccc2ccccc12 | 4 | -4.7 | -1% | 23% | 2 | 0
Cc1ccc(SCC(=O)Nc2cccc(-c3nnc(-c4ccco4)o3)c2)cc1 | -3 | -3.7 | -15% | 4% | -4 | 3

Arranged by value in gsp ag (low to high): 4 from the list above
SMILES | Six1-Eya2 inh | D2 agonist | gsp antag | gsp ag | D2 PAM | CtBP-E1A inh
COC(=O)CN1C(=S)N(c2ccc(OC)cc2)C(=O)/C1=C/c1ccc(N2CCOCC2)cc1 | -15 | -9.7 | -13% | -15% | -5 | -28
CCn1c(C)c(C)c2cc(C(=O)N3CCc4ccccc4C3)ccc21 | -29 | -0.9 | 4% | -8% | -12 | /
COC(=O)c1ccc(C(=O)OC)c(NC(=O)COC(=O)C2CCCCC2)c1 | 17 | -0.3 | 7% | -7% | 6 | 2
COc1ccc(CCN2CC(C(=O)NCc3cn(C)nc3C)CCC2=O)cc1 (stereo not drawn) | 0 | -2.9 | / | -4% | -15 | 3

Additional records follow.
SMILES | Six1-Eya2 inh | D2 agonist | gsp antag | gsp ag | D2 PAM | CtBP-E1A inh
COc1cc(/C=N/N2C(C)CCCC2C)cc(Br)c1O (stereo not drawn) | -3 | 5.2 | -2% | 28% | -12 | 7
O=C(Nc1cccnc1)c1ccccc1F | 1 | -0.1 | -2% | -5% | 10 | 6
CSC1=NC2C(N1)N(C)C(=O)N2C (stereo not drawn) | 4 | 0.2 | -5% | -4% | 9 | 11
COc1ccc(OC)c(S(=O)(=O)Oc2ccc(N)c3ccccc23)c1 | -12 | 3.8 | -16% | -18% | 6 | -10
COC(=O)c1cc(NC(=O)c2cc(C(C)(C)C)nn2Cc2cccc(C)c2)ccc1N1CCOCC1 | -5 | -14 | -14% | 3% | 3 | /
Cc1ccc(C2C(C#N)=C(N)N(c3ncn[nH]3)C3=C2C(=O)CC(C)(C)C3)cc1 (stereo not drawn) | 3 | 2.5 | -2% | 10% | -15 | 5
O=C(NC1CC2CCCC(C1)N2Cc1ccccc1)C1CCCCC1 (stereo not drawn) | 11 | 0.8 | 0% | -3% | -19 | /
COc1ccc(S(=O)(=O)N2CCc3ccccc32)cc1C(=O)Nc1cc(S(C)(=O)=O)ccc1Cl | 6 | 0.7 | -27% | -28% | -2 | 20
O=C(OCc1ccc(Cl)cc1)c1ccccc1C(=O)c1ccccc1 | 34 | -3.3 | ? | -5% | -13 | 45

From PubChem
